High-throughput results (PubChem)
StopGo reporter – FMDV 2A StopGo reporter, luciferase signal; human cells with a luciferase reporter of 2A StopGo recoding; control for the full effect not named in the record; Potency, µM (doses to about 57.9 µM), for inactives: at the top dose signal change, negative = less light; 1.2% of 410,000 active; active = well fitted falling curve with a large enough effect; inconclusive = small, poorly fitted or top-dose-only effect; inactive = no such curve, though single readings can be large or run the other way; tested in HEK293T cells; further: nearly all actives have a fitted effect of over 45% in size; luciferase light after 4 h
RE007 growth inh – less growth of the S. pombe RE007 Vpr strain. S. pombe RE007 Vpr strain, BacTiter-Glo ATP luminescence, 24 h; control for the full effect not named in the record. Potency, µM (highest dose often 92.2 µM), for the others: at the highest dose activity change, negative = less growth. 0.21% of 360,000 active. AID 651644; active = well fitted falling curve with a large enough effect; inconclusive = small, poorly fitted or top-dose-only effect; inactive = no such curve, though single readings can be large or run the other way;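 further: nearly all actives have a fitted effect of over 50% in size; the assay follows cell death caused by Vpr and the record does not say whether a fall means rescue or toxicity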
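Fission yeast strain RE007, carrying one chromosomally integrated HIV-1 vpr copy, was seeded at OD 0.01 in PMG+AL medium with 23 nL pinned compound. After 24 h at 30 °C and 99% humidity, viability was read by BacTiter-Glo luminescence.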
An asterisk follows results filed as active; ? = inconclusive; [ ] = remark or other dose. On the % scale 0 is the no-effect control and ±100 the full control effect; potency means the concentration at half of the fitted maximal effect. Not all compounds are listed (hit frequency here may not be typical).

SMILES | StopGo reporter | RE007 growth inh
CC(C)n1nnnc1C1c2ccccc2C(=O)N1CCc1ccccc1F (stereo not drawn) | 28% | -14%
CN1CC2=CC(O)CC3Oc4c(O)ccc(c4[C@]23C)C1 (stereo partly drawn) | -10% | 2%
CC1=C(C(=O)OCc2ccccc2)C(c2ccc(C)cc2)NC(=O)N1 (stereo not drawn) | -24% | -1%
CN(CC(=O)Nc1ccccc1Br)C(=O)c1ccccc1Sc1ccccc1C#N | -12% | -6%
C[C@H](CO)N1C[C@H](C)[C@@H](CN(C)C(=O)Nc2ccccc2)Oc2ncc(C#CC3CCCCC3)cc2C1=O | 51%[activator] | -6%
COc1cccc(Cn2c(Cn3c(-c4cnccn4)nc4ccccc43)nc3ccccc32)c1 | -18% | 4%
CN(C)S(=O)(=O)c1cccc(C(=O)Nc2cc(S(=O)(=O)N3CCOCC3)ccc2N2CCCC2)c1 | -7% | -17%
CCC1OC(C(C)C)Cc2[nH][nH]c(=O)c21 (stereo not drawn) | -21% | 1%
CCc1nc2ccc(C(=O)Nc3cccc(OCC(=O)N(C)C)c3)cn2c1N(CCN(C)C)CC1CC1 | -11% | -20%
CCOC(=O)[C@]12CCC=C1N(Cc1ccccc1)C(=O)[C@H](CC(=O)NCC13CC4CC(CC(C4)C1)C3)C2 | -24% | -29%
C[C@@H]1CN([C@H](C)CO)C(=O)c2cc(Br)cnc2O[C@H]1CN(C)C | -21% | 9%
Cc1nnc(SCC(=O)Nc2cccc(S(=O)(=O)N3CCCC3)c2)n1C1CC1 | -15% | 12%
CCN(C(=O)COC(=O)c1cccnc1)c1cccc2ccccc12 | -20% | 7%
COc1ccccc1N1CCN(c2ncnc3n[nH]c(Br)c23)CC1 | ? | -16%
C[C@@H]1CN([C@H](C)CO)C(=O)c2cc(C#C[C@@H](C)O)cnc2O[C@H]1CN(C)C(=O)c1ccc(F)cc1 | -16% | 17%
CC(=O)Nc1cc(-c2ccccc2)cn2c(-c3cccc(C(C)=O)c3)cnc12 | -21% | 4%[18.4 µM]
COC(=O)C1=C(c2ccccc2)C[C@@H]2CC[C@H]1N2C(=O)NC1CC1 | -20% | 10%
CC1Sc2ccc(C#N)cc2N(Cc2cccc(C(F)(F)F)c2)C1=O (stereo not drawn) | -6% | -8%
CON(C)c1nc(C2CCCCC2)c2cc(C)ccc2n1 | -27% | -5%
C[C@H]1CN([C@@H](C)CO)C(=O)CCCn2nncc2CO[C@H]1CN(C)S(=O)(=O)c1ccc(Cl)cc1 | -15% | -8%
Cc1ccc(-c2ccc(CN3C(C)C(=O)N(Cc4cn(CCC5OCCO5)nn4)CCS3(=O)=O)cc2)cc1 (stereo not drawn) | 1% | 1%
CN(C)c1ccc(-c2ccnc3c2CC(C)(C(=O)Nc2ccccc2)O3)cc1 (stereo not drawn) | 6% | 7%
COCCN(C(=O)c1cc(-c2ccccc2Cl)nc2ccccc12)c1c(N)n(CC(C)C)c(=O)[nH]c1=O | -8% | -1%
Cc1ccc(S(=O)(=O)NCC2CCC(C(=O)NCCCN3CCC(C)CC3)CC2)cc1 (stereo not drawn) | -14% | -4%
O=C1NCCN(CC2CCN(CCc3ccccc3)CC2)C1=O | 4% | -9%
CCOc1cc(OCC)cc(C(=O)N2CCC[C@@H]2C(=O)N2CCC[C@@H]2C(=O)NCc2ccccc2Cl)c1 | 6% | -8%
O=C1[C@H](Cc2ccccc2)NCCCC[C@@H](c2ccc(Cl)cc2)N1Cc1ccccc1 | 0% | 3%
O=C(C(=O)N(Cc1ccccc1)Cc1ccccc1)c1c(-c2ccccc2)[nH]c2ccccc12 | 49%[activator] | -16%
O=C(CC(=O)OCc1ccccc1)OCc1ccccc1 | -19% | 22%
O=C(C[n+]1ccc(C(=O)NCc2ccccc2)cc1)c1ccc(F)cc1 | -12% | 0%
CCOc1ccc(Cl)cc1-c1cc(C(=O)NCC2CCCCC2)[nH]n1 | -24% | 2%
CN(C)CCN1CCN(c2cc(-c3cccc(Cl)c3)nc3ccnn23)CC1 | -20% | -13%
Cc1ccc(Cc2c(-c3cccc(Br)c3)nc3c(Cl)cc(C(F)(F)F)cn23)cc1 | -9% | -15%
CN1C[C@@H]2[C@@H]3C(=O)N(Cc4ccccc4)C(=O)[C@@H]3[C@](Cc3ccccc3)(C1=O)N2C(=O)c1ccc(Cl)c(Cl)c1 | ? | -9%
CC1=C(C(=O)N(C)C)CC(CC(=O)NCC2CCCCC2)C(=O)N1Cc1ccc(F)cc1 (stereo not drawn) | -2% | 5%
COc1ccc(NC(=O)CCNC(=O)N2CC(=O)Nc3ccccc32)cc1OC | -16% | -17%
C[C@H](NC(=O)CC[C@H]1O[C@@H](n2ccc(=O)[nH]c2=O)[C@H](O)[C@@H]1O)C(=O)O | -13% | -2%
c1coc(-c2nc(N=C3N=c4ccccc4=N3)[nH]c2-c2ccco2)c1 | -1% | 2%
O=C1NC[C@H](CCCCN2C[C@H](Cc3ccc(O)cc3)N(CC3CCCCC3)C(=O)C2=O)N(CCC2CCCCC2)C1=O | -10% | 2%
Cc1ccsc1-c1cc2nc(NCCOc3ccccc3Cl)n(C)c(=O)c2s1 | 24% | 1%[18.4 µM]

Some of the entries so far, field by field.
> CCOc1ccc(Cl)cc1-c1cc(C(=O)NCC2CCCCC2)[nH]n1
  StopGo reporter: -24%	RE007 growth inh: 2%
> CN(C)CCN1CCN(c2cc(-c3cccc(Cl)c3)nc3ccnn23)CC1
  StopGo reporter: -20%	RE007 growth inh: -13%
> Cc1ccc(Cc2c(-c3cccc(Br)c3)nc3c(Cl)cc(C(F)(F)F)cn23)cc1
  StopGo reporter: -9%	RE007 growth inh: -15%
> CN1C[C@@H]2[C@@H]3C(=O)N(Cc4ccccc4)C(=O)[C@@H]3[C@](Cc3ccccc3)(C1=O)N2C(=O)c1ccc(Cl)c(Cl)c1
  StopGo reporter: ?	RE007 growth inh: -9%

The results go on:
SMILES | StopGo reporter | RE007 growth inh
CS(=O)(=O)N(CC(=O)N1CCc2ccccc2C1)c1ccccc1F | 1% | -6%
Nc1ccn([C@@H]2O[C@H](CNCc3ccc(N4CCNCC4)cc3)[C@@H](O)[C@H]2O)c(=O)n1 | 0% | ?
CC(=O)O[C@@H]1/C=C/[C@](C)(O)C[C@@H](C)C/C=C/[C@H]2[C@@H]3O[C@]3(C)[C@@H](C)[C@H]3[C@H](Cc4ccccc4)NC(=O)[C@@]312 | ? | 16%
CC1(C(=O)NS(=O)(=O)c2ccc(F)cc2F)CCN1C(=O)CCc1ccc(Cl)cc1Cl (stereo not drawn) | -28% | 3%
O=C(NNC(=O)c1ccccc1-n1cccc1)c1cccnc1 | -15% | 1%
OCCCNc1nc(-c2ccccc2)c2cc(Cl)ccc2n1 | -11% | -3%
COc1ccc(S(=O)(=O)N2CCOCC2)cc1NC(=O)CCCSc1ccccc1 | 0% | -7%
COC(=O)C[C@H]1C[C@H]2c3cc(NS(=O)(=O)c4cccc(OC)c4)ccc3O[C@H]2[C@@H](CO)O1 | 6% | -15%
CCOc1ccc(NC(=O)CN(C)C(=O)Cc2ccc3c(c2)OCCO3)cc1OCC | -7% | -11%
COc1ccc(OC)c(CN2C(=O)c3ccccc3C2c2nnnn2-c2ccc3c(c2)OCCO3)c1 (stereo not drawn) | 5% | -15%

Copied from above, 2 compounds:
SMILES | StopGo reporter | RE007 growth inh
CCOc1ccc(NC(=O)CN(C)C(=O)Cc2ccc3c(c2)OCCO3)cc1OCC | -7% | -11%
COc1ccc(OC)c(CN2C(=O)c3ccccc3C2c2nnnn2-c2ccc3c(c2)OCCO3)c1 (stereo not drawn) | 5% | -15%

New compounds follow.
SMILES | StopGo reporter | RE007 growth inh
C#Cc1ccc([C@H]2C=C(C(=O)O)O[C@@H](OCCCCO)C2)cc1 | 0% | 11%
C=CC1=C2C=C(C3CC3)N(C3CC3)C=C2C(=O)C(C)(OC(=O)c2ccco2)C1=O (stereo not drawn) | 68%[activator] | -13%
COc1cc2ccc(C(=O)O)cc2cc1OC | 38%[activator] | -19%
COc1cccc(C=NN(C)c2c([N+](=O)[O-])cc(C(F)(F)F)cc2[N+](=O)[O-])c1O | -26% | 3%[18.4 µM]
OC(c1ccc(F)cc1)c1nc(-c2cnc3ccccc3c2)cs1 (stereo not drawn) | 20% | 15%
COc1ccccc1CNC(=O)COC(=O)CCN1C(=O)C2CC=CCC2C1=O (stereo not drawn) | -20% | -5%
CCN(CC)C(=O)C1=C(C)N(Cc2ccccc2)C(=O)C(CC(=O)NCCN2CCOCC2)C1 (stereo not drawn) | 0% | 8%
CCCCCCN1C[C@H](n2cc(-c3ccc(F)cc3)nn2)[C@@H](O)C[C@@H]1c1ccc(C)cc1 | -22% | -30%
O=C(c1ccccc1)n1c2ccccc2c(=O)n1-c1ccccc1CCl | 39%[activator] | -12%
O=C1CCCCC(=O)[C@H](O)C[C@H](COCc2ccccc2)O1 | -24% | 4%
COC(=O)[C@@]1(Cc2ccc(F)cc2)[C@H]2c3cc(C(=O)N(C)C)n(Cc4cc(F)cc5c4OCOC5)c3C[C@H]2CN1C(=O)c1ccccc1 | -13% | -1%
O=C(c1ccc(N2CCCC2=O)cc1)N1CCN(c2ccc(C(F)(F)F)cc2[N+](=O)[O-])CC1 | ? | -20%
O=C(c1cc(C2CC2)nn1-c1ccccc1)N1CCN(Cc2ccccc2)CC1 | -20% | 1%
CC1=C(C(=O)N(C)C)CC(CC(=O)NCc2cccc3ccccc23)C(=O)N1Cc1ccc(F)cc1 (stereo not drawn) | -13% | -3%
CC(C)NC(=O)C1(C)CCCN1Cc1ccccc1 (stereo not drawn) | -15% | 7%[18.4 µM]
O=C(NCc1ccccc1)C(C1CC1)n1c(=O)c(-c2ccco2)nc2ccccc21 (stereo not drawn) | -13% | -13%
COc1cccc(C(c2nnnn2-c2ccc3c(c2)OCCO3)N2CCC3(CC2)C(=O)NCN3c2ccccc2)c1OC (stereo not drawn) | ? | 9%
CCC(=O)N1CCC1(C)C(=O)NCc1ccccc1SC (stereo not drawn) | 4% | -5%[18.4 µM]
O=C(C1CCCCC1)N1CCC2CC1c1cc(N3CCCCC3)ccc12 (stereo not drawn) | -30% | -8%
CCc1cc(CNC(=O)C2CCC(=O)N(Cc3ccccc3F)C2)on1 (stereo not drawn) | -8% | -18%
O=[N+]([O-])c1ccc(/C=N\N2CCN(Cc3ccccc3Cl)CC2)cc1 | -9% | -25%
CCCS(=O)(=O)NC(=O)C1(C)CCCN(C(=O)COc2ccc(Cl)cc2Cl)C1 (stereo not drawn) | 0% | 4%
O=C(Nc1nnc([C@@H]2C[C@H](O)[C@@H](CO)O2)s1)c1cccs1 | 6% | -8%[18.4 µM]
O=C(NCC1=C(c2cccc3ccccc23)C[C@@H]2CC[C@H]1N2Cc1ccco1)c1cccnc1 | 0% | -9%
COc1ccc(C(c2nnnn2C2CCCC2)N2CCC3(CC2)C(=O)NCN3c2ccccc2)cc1 (stereo not drawn) | 6% | -7%
Cc1ccc(F)cc1C(=O)N1CCCCC1c1cc(C(=O)Nc2ccccc2)no1 (stereo not drawn) | ? | -3%
CCc1nc2ccc(C(=O)N3CCN(C(=O)c4ccco4)CC3)cn2c1N(C)Cc1cccs1 | -21% | -14%
COc1cc(NC(=O)Nc2nc(C(N)C(C)C)cs2)cc(OC)c1OC (stereo not drawn) | 1% | 1%[18.4 µM]
COC(=O)[C@@H](Cc1ccccc1)NS(=O)(=O)N[C@H](Cc1ccccc1)C(=O)OC | 4% | -11%
COc1cccc(C(O)c2nc(-c3ccc(OC)nc3)cs2)c1 (stereo not drawn) | -9% | 23%
COCCCNc1nccn2ccnc12 | 5% | 2%
CCCCN1C(=O)C(CC(=O)NCc2cccs2)CC(C(=O)N2CCOCC2)=C1C (stereo not drawn) | -10% | 6%
CCCCNC(=O)C1(C)CCCCN1C(=O)c1cc(C#N)cs1 (stereo not drawn) | -7% | 1%[18.4 µM]
CCOC(=O)C1=C[C@@H](C(C)(C)C)N(S(=O)(=O)c2ccc([N+](=O)[O-])cc2)[C@H]1c1ccccc1 | ? | 9%
C[C@@H]1CCCCO[C@@H](CN(C)CC2CC2)[C@@H](C)CN([C@H](C)CO)C(=O)c2cc(N(C)C)ccc2O1 | -24% | -3%
O=C(/C=C/[C@H]1O[C@@H](n2ccc(=O)[nH]c2=O)[C@H](O)[C@@H]1O)NCCN1CCCC1 | -24% | 6%
COC(=O)[C@H](Cc1ccccc1)NS(=O)(=O)c1ccc(F)cc1Br | 24% | 6%
CC1(C(=O)Nc2ccc3c(c2)OCCO3)CN(S(C)(=O)=O)CC(=O)N1C1CCCCCC1 (stereo not drawn) | 11% | -10%
